Sa growth 42C: inhibitors of Staphylococcus aureus growth at 42 °C. S. aureus RN4220 growth, OD600, 20 h; hits give low values. relative growth, % (test concentration not listed). actives 0.53% (n = 170,000). AID 720641;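 active = growth at 42 °C up to 50% and 20 or more points under that at 30 °C, or under 10% at both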;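 note: 300 nL library stock went into each well; scaled to the means of positive and negative controls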
GIV-Gai inh: blocks GIV peptide binding to rat Galpha-i3. AID 1224905. Galpha-i3/FITC-GIV peptide fluorescence polarization, 90 min; hits give low values; scaled: aluminum fluoride 0%, vehicle 100%. actives 0.42% (n = 210,000). percent of control (FP), % (concentration not given with the values). P08753;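 active = replicate mean at 85% of control or lower, very high polarization wells dropped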;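 note: wells of about 15 µL received 100 nL stock; the first replicate is given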
Target sequence (P08753 whole entry, looked up): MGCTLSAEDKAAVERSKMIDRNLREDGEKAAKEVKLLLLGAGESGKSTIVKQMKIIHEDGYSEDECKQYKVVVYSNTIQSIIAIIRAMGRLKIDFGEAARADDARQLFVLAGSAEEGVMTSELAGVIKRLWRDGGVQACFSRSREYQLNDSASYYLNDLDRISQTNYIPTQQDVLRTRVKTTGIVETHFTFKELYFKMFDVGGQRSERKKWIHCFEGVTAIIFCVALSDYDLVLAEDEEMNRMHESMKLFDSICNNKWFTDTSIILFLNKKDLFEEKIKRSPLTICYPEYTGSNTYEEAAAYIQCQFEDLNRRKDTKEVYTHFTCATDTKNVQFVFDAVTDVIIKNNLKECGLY
HCMV NEC inh: cytomegalovirus nuclear egress complex inhibition | HTRF UL50-UL53 interaction, normalized percent inhibition | actives 0.15% (n = 190,000) | inhibition, % (test concentration not listed) | AID 1918969;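 active = both replicates at 50% or more, plus weaker picks with an unusually low signal ratio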;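 note: stock transfer was 100 nL into about 20 µL; 0% = negative control wells and 100% = wells with untagged competitor protein; inactives centre near -12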
Sa growth 42C second temp: recorded beside Sa growth 42C, whose call it bears; relative growth, %; measured here: growth at 30 °C;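 optical density after 20 h as mean of two plates; 100% = untreated growth and lower means inhibition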
The depositor's hits bear a star; / = not tested or not shown; & = joins results of further samples.

SMILES,HCMV NEC inh,GIV-Gai inh,Sa growth 42C second temp,Sa growth 42C
CCCCOc1ccc(C(=O)OCC2CCCN3CCCCC23)cc1OC (stereo not drawn),-22,107,64*,43*
CC(C)CN1C(=O)c2ccc(C(=O)Nc3ccncc3)cc2C1=O,-108,104,80,104
CCN1CC(=O)N(CC)C1=S,-15,/,87,63
Cc1ccc(Nc2c(-c3ccc(N4CCOCC4)cc3)nc3ccccn23)cc1,-23&-16,98&100,94,89
OCCCc1nc2ccccc2n1CC1CCCCC1,10,100,104,128
COc1ccccc1/C=C/c1nn2c(-c3cccnc3)nnc2s1,-26,103,/,/
Cc1ccc(S(C)(=O)=O)s1,-9,104,104,125
COc1ccc([N+](=O)[O-])cc1NC(=O)c1sc2nc(C)nc(N3CCN(c4ccccn4)CC3)c2c1C,-11,104,/,/
Cc1cccc(C)c1NC(=O)Cn1c(=O)n(Cc2ccco2)c(=O)c2ccc(C(=O)NC3CCCC3)cc21,-29,97,91,98
CC1CN(C(=O)Nc2ccc(F)cc2)c2ccccc2S1 (stereo not drawn),-1,109,99,114
CCOc1ccc(S(=O)(=O)c2cn(CC(=O)Nc3ccccc3Cl)c3nc(C)ccc3c2=O)cc1,16,130,/,/
CC1CCC(NC(=O)C2(C)Cn3c(cc4occc43)C(=O)N2CCN2CCN(C)CC2)CC1 (stereo not drawn),-9,104,/,/
CCCN1Cc2cccc(C(=O)NCc3cccs3)c2C1=O,-19,100,86,101
CN(C)S(=O)(=O)c1cccc(COC(=O)c2cnccn2)c1,-17,/,96,71
O=C(O)c1ccc(N2CCN(c3ccccn3)CC2)c(NC(=O)c2ccc(Br)cc2)c1,-10,98,/,/
CCOC(=O)C1CCN(C(=O)c2cc3c(ccc4ccccc43)o2)CC1,-50,103,75,108
COc1cccc(Sc2nc3ccccc3n3c(=O)n(CC(=O)N4CCCc5ccccc54)nc23)c1,-20,104,/,/
Cc1c(C(=O)NCc2cccc(Cl)c2)sc2nc3n(c(=O)c12)CCCC3,-19,99,67,117
COC(=O)c1ccc(OC)c(Cn2c(=O)n(-c3ccc(C)cc3)c(=O)c3c2cnn3C)c1,-2,97,89,99
CC1C(=O)C(C)C(c2ccc(O)cc2)NC1c1ccc(O)cc1 (stereo not drawn),-26,104,79,97
CCOC(=O)c1[nH]ncc1Sc1ccc(Cl)cc1,-35,99,90,125
NC(=O)c1ccc(-c2nnc(-c3ccccc3)o2)cc1,/,109,90,92
O=C(NCc1cccnc1)/C(=C\c1ccc(Br)cc1)S(=O)(=O)c1ccccc1,/,95,-0.8*,-1.3*
COc1ccccc1/C=N/N(CCC#N)C1=NS(=O)(=O)c2ccccc21,-24,103,84,86
CC(Sc1nnc(-c2ccccc2)n1N)C(=O)O (stereo not drawn),28,110,97,103
Cc1ccc(-c2nc(CSc3nncn4c3cc3occc34)c(C)o2)cc1,/,106,83,93
C=CCn1c(=O)/c(=C/c2c(O)ccc3ccccc23)s/c1=C(/C#N)c1nnc2n1CCCCC2,-1,/,98,86
CC1CCCC(C)N1C(=O)C1c2ccccc2Oc2ccccc21 (stereo not drawn),-16,109,99,111
CCNC(=O)C(C)N (stereo not drawn),3,/,93,90
CCN(Cc1ccccc1)C(=O)Cn1c(C(C)O)nc2ccccc21 (stereo not drawn),-20,/,89,102
CS(=O)(=O)c1ccc(Cl)c(NC(=O)CN2CCN(Cc3ccc(Cl)s3)CC2)c1,7,/,95,92
COc1ccc(C(=O)N2CC3(C)CC2CC(C)(C)C3)cc1OC (stereo not drawn),-17,/,89,91
Cc1ccc(C(=O)c2sc(Nc3ccccc3)c(S(=O)(=O)c3ccccc3)c2N)c(C)c1,/,102,109,119
CCC(C)(C#CCN1CCOCC1)OC(C)=O (stereo not drawn),-20,101,85,96
Cc1ccc(C(=O)NC(C)C(c2cccs2)N2CCN(C)CC2)cc1 (stereo not drawn),-16,99,88,95
Cc1c(C(=O)Nc2ccc(N3CCOCC3)c(Cl)c2)cnn1-c1ccc(F)cc1,-20,102,88,97
CC(=O)Nc1ccc(SCC(=O)N2N=C(c3ccc(Cl)cc3)CC2c2ccco2)cc1 (stereo not drawn),-28,/,96,98
COc1ccccc1NC(=O)CSC1=Nc2ccccc2C2=NC(CC(=O)NCc3ccc4c(c3)OCO4)C(=O)N12 (stereo not drawn),/,105,96,74
CCOC(=O)CSC1=C(C#N)C(c2ccc3c(c2)OCO3)CC(=O)N1 (stereo not drawn),-15,100,75,79
O=C(NC1CCN(C(=O)Nc2cccc(F)c2)CC1)c1ccco1,-6,96,97,104
CN1CCN(C(=S)NC(=O)c2ccccc2)CC1,-6,103,113,80
COc1ccc(OCc2ccc(-c3nc(C#N)c(N4CCC(C)CC4)o3)o2)cc1,-24,99,82,105
COCCN1CN=C(Nc2nc3ccccc3s2)NC1,-32,107,82,90
O=C(CN1CCN(c2ccccc2Cl)CC1)N1CCNC1=O,-16,/,96,86
CCOc1ccc(I)cc1C#N,-13,103,95,112
CCCCc1sc(N)nc1-c1ccc2c(c1)CCN2S(C)(=O)=O,-14,102,67,110
CC(C)(C)NC(=O)COc1cc(N2CCOCC2)c2ccccc2c1Cl,-28,104,87,104
Cc1ccc(Cn2c(SCc3ccc(C(=O)N4CCCCC4)cc3)nc3ccncc32)cc1,-3,108,42,96
Cc1ccc(/C(O)=C(\C#N)c2nc3ccccc3s2)cc1C,-30,107,27,67
CCOc1ccc(N(CC)S(=O)(=O)c2cc(Br)cc3c2N(C(C)=O)C(C)C3)cc1 (stereo not drawn),0,99,89,96

Carrying on:
SMILES,HCMV NEC inh,GIV-Gai inh,Sa growth 42C second temp,Sa growth 42C
COc1ccc(CCNc2nc(-c3ccc(OC)c(OC)c3)cc(C(F)(F)F)n2)cc1OC,12,101,83,98
Cc1cc(N(C)C)n2ncc(-c3ccc(Cl)cc3)c2n1,2,105,/,/
CCN(Cc1ccccc1)C(=O)c1ccc(CS(=O)c2ccccc2C)o1 (stereo not drawn),-40,106,94,97
CN(C(=O)c1nn(C)c2c1CSc1ccccc1-2)c1ccccc1Cl,/,103,61,84
CC(=O)N1CCN(C(=O)c2cccc(S(=O)(=O)N(C)C(C)C)c2)CC1,-17,/,94,125
CNC(=O)c1c(NC(=O)c2nc3ccccc3s2)sc(C)c1C,-11,112,91,100
CCOc1ccc(NC(=O)CN2CCSc3ccc(S(=O)(=O)N4CCCC4)cc32)cc1,/,104,82,98
Cc1nn(-c2ccccc2)c2c1CC1(C(=O)NC(=O)c3ccccc31)C1CCCN21 (stereo not drawn),8,/,92,106
O=[N+]([O-])c1cc(-c2nc(-c3cccnc3)no2)ccc1NCc1ccccc1,-13,105,91,96
CCOC(=O)c1cn2nc(-c3ccc(OCC)cc3)cc2nc1C,2,101,99,98
CCN(CC)C(=O)c1cc(-c2ccccc2O)on1,/,100,94,117
COc1ccc(/C=C2/SC(=S)N(c3c(C)n(C)n(-c4ccccc4)c3=O)C2=O)cc1OC,-26,101,/,/
Cc1ccc(COc2ccccc2C(N)=O)cc1,0,/,102,105
COc1ccccc1NC1=NC2(N=C(N)N1)C(=O)N(C(C)=O)c1ccccc12 (stereo not drawn),-13,99,96,112
CCn1cc(C2=NC(c3ccccc3)CO2)c2ccccc21 (stereo not drawn),/,101,50,36
Cc1ccc(-c2nc(C)c(CCNC(=O)C(=O)Nc3ccc4c(c3)OCCO4)s2)cc1,/,103,79,134
COc1ccc(-c2cc(C(F)(F)F)nc(SCCC(=O)N(C)c3ccccc3)n2)cc1,/,103,86,92
CCOc1ccc(CNS(=O)(=O)c2ccc3c(c2)CCCN3C(C)=O)cc1,/,104,87,91
COc1cc(=O)n(-c2ccccc2C)nc1C(=O)Nc1cccc(Br)c1,-13,102,/,/
CNCC(=O)Nc1cc(C)ccc1C,-17,/,90,77
COC(=O)c1ccc(S(=O)(=O)N(CCO)CCO)n1C,7,110,98,97
O=C(OC1CCCCC1=O)c1cccnc1Cl (stereo not drawn),-14,/,89,88
CCc1ccccc1NC(=O)CN1CCNCC1,-18,/,92,92
COCCCNC(=O)Cc1csc2nc(-c3ccc(F)cc3)cn12,-23,103,/,/
COc1ccc(N=C2SC(C(=O)Nc3ccc(C(=O)O)cc3)CC(=O)N2CCc2ccc(OC)c(OC)c2)cc1 (stereo not drawn),0,101,/,/

Gathered by group: the entries above containing a COOH group
SMILES,HCMV NEC inh,GIV-Gai inh,Sa growth 42C second temp,Sa growth 42C
O=C(O)c1ccc(N2CCN(c3ccccn3)CC2)c(NC(=O)c2ccc(Br)cc2)c1,-10,98,/,/
CC(Sc1nnc(-c2ccccc2)n1N)C(=O)O (stereo not drawn),28,110,97,103
COc1ccc(N=C2SC(C(=O)Nc3ccc(C(=O)O)cc3)CC(=O)N2CCc2ccc(OC)c(OC)c2)cc1 (stereo not drawn),0,101,/,/

Individual results from above.
O=C(OC1CCCCC1=O)c1cccnc1Cl (stereo not drawn) in Sa growth 42C → 88
Cc1ccc(-c2nc(C)c(CCNC(=O)C(=O)Nc3ccc4c(c3)OCCO4)s2)cc1 in Sa growth 42C → 134
COc1cc(=O)n(-c2ccccc2C)nc1C(=O)Nc1cccc(Br)c1 in HCMV NEC inh → -13
COC(=O)c1ccc(S(=O)(=O)N(CCO)CCO)n1C in GIV-Gai inh → 110
Cc1nn(-c2ccccc2)c2c1CC1(C(=O)NC(=O)c3ccccc31)C1CCCN21 (stereo not drawn) in Sa growth 42C second temp → 92
COc1ccc(/C=C2/SC(=S)N(c3c(C)n(C)n(-c4ccccc4)c3=O)C2=O)cc1OC in HCMV NEC inh → -26
CC(=O)N1CCN(C(=O)c2cccc(S(=O)(=O)N(C)C(C)C)c2)CC1 in Sa growth 42C second temp → 94

(list continues)
SMILES,HCMV NEC inh,GIV-Gai inh,Sa growth 42C second temp,Sa growth 42C
COc1cc(OC)cc(C2CC(OC(=O)Cn3ncc4ccccc4c3=O)C(=O)N2C)c1 (stereo not drawn),-3,106,92,91
CCOC(=O)C1=C(C)N=c2s/c(=C3\C(=O)N(CC(N)=O)c4ccccc43)c(=O)n2C1c1ccccc1Cl (stereo not drawn),-24,102,/,/
CCOC(=O)CC1C(=O)NCCN1Cc1ccc(Cl)c(F)c1 (stereo not drawn),-8,98,93,97
CCOC(=O)c1ccc(NC(=O)CCOc2cccc(C)c2)cc1,-34,/,89,109
CCCN1CCOC(CC(=O)Nc2ccc(Br)cc2Br)C1=O (stereo not drawn),-4,101,31,101
CS(=O)(=O)c1ccccc1C(=O)Nc1ccc(-c2nc3ccccc3o2)cc1,-12,103,97,104
O=c1[nH]c2ccccc2nc1CN1CCOCC1,-14,102,/,/
COc1ccc(Nc2cc(C)nc(-n3nc(C)cc3C)n2)cc1Cl,/,105&105,43,20
CCN(CC)C(=O)c1sc(N)c(C#N)c1C,-1,/,96,102
O=C(Nc1nnc(C(F)(F)F)s1)c1ccc(F)c(Cl)c1,/,101,11,22
CC12CCCC(C(N)=O)(CCC1)C2,-25,/,83,103
CC(O)CNc1nc2ccccc2n1CC(=O)NC12CC3CC(CC(C3)C1)C2 (stereo not drawn),-9,/,88,67
N#Cc1cccc(NC(=O)Cn2ncc3c(=O)oc4ccccc4c32)c1,4,90,/,/
COc1cc2[nH]c(=O)n(Cc3ccc(C(=O)N4CCN(c5cccc(C)c5C)CC4)cc3)c(=O)c2cc1OC,-8,104,95,106
CCOC(=O)c1scnc1C,0,98,90,69
O=C1CCC(C(=O)N[C@@H](Cc2ccccc2)c2nc3ccccc3[nH]2)=NN1,-34,/,77,104
O=C(NN1C(=O)C2C3C=CC(C3)C2C1=O)C(O)c1ccccc1 (stereo not drawn),-9,105,102,110
O=C(O)c1ccc(CN2C(=O)SC(Nc3ccccc3)C2=O)cc1 (stereo not drawn),-15,93,84,94
CCOC(=O)C1(c2ccccc2)CCCN1C(=O)CN1C(=O)c2ccccc2C1=O (stereo not drawn),-41,101,/,/
CN(C)C(CNC(=O)C1CCCN1C(=O)c1cccs1)c1ccccc1 (stereo not drawn),10,/,104,90
Cc1noc(-c2ccccc2OCC(=O)O)n1,-25,102,92,99
O=C(c1noc2c1COc1ccccc1-2)N1CC=C(c2ccccc2)CC1,10,99,/,/
Cc1nn(C)c2c1c(-c1ccccc1)cc(=O)n2Cc1ccc(F)cc1Cl,/,101,92,85
Oc1ccccc1-c1cc2ccccc2[nH]1,-4,111,36,70
CCOc1ccc(-c2nc(Cn3ccn4nc(-c5ccc(OCC)c(Cl)c5)cc4c3=O)c(C)o2)cc1,22,102,99,97
O=C(OCc1cccs1)C1CCCCC1,-13,/,93,93
CN(c1ccccc1C(=O)O)S(=O)(=O)c1ccc2[nH]c(=O)oc2c1,-2,100,85,102
FC(F)(F)c1ccccc1CNc1ccc(-c2nc3ncccc3o2)cc1,/,100,91,96
O=C(NC1CC(=O)N(c2ccc(Cl)cc2)C1)c1ccc(S(=O)(=O)N2CCCC2)cc1 (stereo not drawn),/,98,99,107
O=C1CCCc2cc(S(=O)(=O)NC3CCCCCC3)ccc2N1,-1,100,91,97

Part of the list above, field by field.
FC(F)(F)c1ccccc1CNc1ccc(-c2nc3ncccc3o2)cc1
  HCMV NEC inh: /
  GIV-Gai inh: 100
  Sa growth 42C second temp: 91
  Sa growth 42C: 96
O=C(NC1CC(=O)N(c2ccc(Cl)cc2)C1)c1ccc(S(=O)(=O)N2CCCC2)cc1 (stereo not drawn)
  HCMV NEC inh: /
  GIV-Gai inh: 98
  Sa growth 42C second temp: 99
  Sa growth 42C: 107

Screening results deposited in PubChem BioAssay by ICCB-Longwood Screening Facility, Harvard Medical School.
